# Six1-Eya2 blk – inhibitors of human Six1/Eya2 interaction; Q15475+O00167; AlphaScreen GST-Six1/His-Eya2 binding, biochemical; active compounds read low; control for the full effect not named in the record; activity change, % (concentration not given with the values); 0.56% of 360,000 active; in the data active = activity change below about -65%; inconclusive = about -30% to -65%; inactive = above about -30%; also: % is scaled to controls: 0 for no effect and ±100 for the full control effect
# Target sequence (O00167 whole entry, looked up): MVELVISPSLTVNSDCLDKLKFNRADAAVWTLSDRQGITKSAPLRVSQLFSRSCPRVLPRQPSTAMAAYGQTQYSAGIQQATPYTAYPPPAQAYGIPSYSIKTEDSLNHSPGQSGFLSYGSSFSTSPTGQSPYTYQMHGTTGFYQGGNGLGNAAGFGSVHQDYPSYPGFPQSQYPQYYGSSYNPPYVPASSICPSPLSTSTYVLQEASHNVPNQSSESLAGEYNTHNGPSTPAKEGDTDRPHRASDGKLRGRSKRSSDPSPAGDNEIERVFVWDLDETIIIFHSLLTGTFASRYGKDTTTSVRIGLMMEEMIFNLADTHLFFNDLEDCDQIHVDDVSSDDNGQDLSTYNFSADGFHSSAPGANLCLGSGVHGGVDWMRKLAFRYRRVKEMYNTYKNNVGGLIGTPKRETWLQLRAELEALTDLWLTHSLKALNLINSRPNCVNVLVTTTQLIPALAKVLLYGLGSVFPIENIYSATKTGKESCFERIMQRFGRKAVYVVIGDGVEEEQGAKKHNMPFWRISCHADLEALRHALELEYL
# Target sequence (Q15475 whole entry, looked up): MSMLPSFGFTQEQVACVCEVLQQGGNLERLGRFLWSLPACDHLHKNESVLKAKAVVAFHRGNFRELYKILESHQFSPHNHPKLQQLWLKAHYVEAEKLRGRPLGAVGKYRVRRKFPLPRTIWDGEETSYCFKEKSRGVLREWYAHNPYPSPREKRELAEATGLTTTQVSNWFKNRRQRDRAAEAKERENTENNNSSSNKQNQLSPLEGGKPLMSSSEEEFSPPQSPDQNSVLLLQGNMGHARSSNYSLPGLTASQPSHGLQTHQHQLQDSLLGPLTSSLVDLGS
#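 AlphaScreen with GST-Six1 and His-Eya2 (5X mix: 250 nM and 500 nM), glutathione donor and nickel acceptor beads; buffer 50 mM Tris pH 8.0, 300 mM NaCl, 1 mM TCEP; 1 h at 37 C in the dark.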
# TRPML1 blocker – inhibitors of human TRPML1 channel; activity change, negative = inhibition, % (test concentration not listed); TRPML1-inducible cells, Ca2+ dye fluorescence, FDSS; active compounds read low; inhibition of EC80 agonist-evoked calcium signal; 0.02% of 390,000 active; AID 624415; in the data active means activity change below about -50%; inconclusive means about -30% to -50%; inactive means above about -30%;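 also: stimulus is agonist 54-4 at its EC80 concentration; % is scaled to controls: 0 for no effect and ±100 for the full control effect; compound concentration not given in the record; the text of the record puts the active cut at -80%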
#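 Calcium fluorescence in TRPML1-DL cells induced overnight with Tet: a 110 s read after compound pin addition, then a 110 s antagonist read after challenge with 54-4 at 4 uM final (EC80).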
# CtBP-E1A blk – inhibitors of CtBP/E1A interaction. AlphaScreen GST-E1A/His-CtBP binding, 1536-well; active compounds read low; control for the full effect not named in the record. activity change, % (concentration not given with the values). 0.49% of 340,000 active. AID 651724; in the data active means activity change below about -65%; inconclusive means about -30% to -65%; inactive means above about -30%; also: % is scaled to controls: 0 for no effect and ±100 for the full control effect
#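 GST-E1A and His-tagged CtBP (125 nM each as 5X stock) were preincubated with pin-transferred compound for 2 h at 37 °C in the dark, then glutathione donor and nickel acceptor beads were added for 1 h before AlphaScreen reading.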
# TRPML1 agonist – activates the human TRPML1 channel | activation, % (test concentration not listed) | AID 624414 | TRPML1-expressing cells, Ca2+ dye fluorescence, FDSS; host cell line not named in the record; reference of the full effect not given here | 0.12% of 410,000 active | Q9GZU1; in the data active = activation above about 50%; inconclusive = about 30% to 50%; inactive = below about 30%; also: 0% is about no effect; the text of the record puts the active cut at 80%
#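 Tet-induced TRPML1-DL cells, 1,500 per well, cultured overnight, were loaded with a no-wash Ca2+ dye for 45–90 min. Calcium fluorescence was recorded on the FDSS for 110 s after compound addition, before the EC80 agonist (4 uM 54-4) was added.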
# D2 agonist – activates the human D2 dopamine receptor. P14416. DiscoveRx PathHunter D2 beta-arrestin, luminescence, 90 min; 100% = 57 uM dopamine signal. activation, % (no concentration beside the values). AID 624465. 0.084% of 360,000 active; in the data active = activation above about 40%; inconclusive = about 15% to 40%; inactive = below about 15%; also: compound concentration not given in the record; the text of the record calls up to 30% inactive
#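 Agonist mode: compounds alone added to overnight-plated D2 PathHunter cells for 90 min at 37 C, with 57 uM final dopamine (EC100) defining full response. Beta-arrestin recruitment detected by chemiluminescent reagent, read after 1 h at ambient temperature.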
# PINK1 expr mod – modulators of PINK1 expression. PINK1 immunofluorescence, high-content cytometry, 24 h. Potency, µM (top dose mostly 76.6 µM), without a hit: top-dose activation (PINK1 increase), hits mostly activators. 0.2% of 410,000 active. AID 624263; active = well fitted activation curve with a large enough effect; inconclusive = small, poorly fitted or top-dose-only effect; inactive = flat fitted curve, though single readings scatter; cell line not stated here;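 also: potency is read from the fitted curve at half-maximal effect; % of control where 0% means no effect; nearly all actives have a fitted effect of over 65% in size; a mitochondrial uncoupler was the plate control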
#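 Cells are seeded, rested 12 hours, then given compound at five concentrations or DMSO for 24 hours. After fixation, blocking and antibody staining, PINK1 amount and mitochondrial localization are scored; CCCP serves as control.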
# The depositor's hits bear a star; ? = inconclusive; nt = not tested or not shown; & = joins results of further samples; [ ] = remark or other dose.
SMILES,Six1-Eya2 blk,TRPML1 blocker,CtBP-E1A blk,TRPML1 agonist,D2 agonist,PINK1 expr mod
CCOC(=O)Cc1csc(NS(=O)(=O)c2ccccc2)n1,3,10,0,0.9,-0.1,-1.2%
CCCCCCN=C(C)c1ccccc1O,-1,2,-7,-0.2,-3.0,4.3%
COC(c1ccccc1)c1nnc(CCC(=O)NCCC(C)C)o1 (stereo unspecified),7,0,0,-0.3,-2.9,0.8%
Cc1cc(C)cc(Oc2ccccc2/C=N\O)c1,-3,-5,-4,0.0,-6.2,16%
CCC(=O)Nc1nc(C)nc(C)c1C(C)=O,5,-16,1,0.1,0.0,-2.6%
N/C(=N\OC(=O)Nc1cccc(C(F)(F)F)c1)c1ccno1,0,-9,2,1.0,-2.3,0.6%
CCc1cc2c(cc3c(=O)n(CC(=O)N4CCCCC4)ncn32)s1,nt,-13,nt,-0.7,nt,-0.1%
O=S(=O)(c1cccc(S(=O)(=O)N2CCC(n3nnc4ccccc43)CC2)c1)N1CCCCC1,-9,-4,-3,0.2,-4.9,0.7%
C=C(C)c1ccc(C(C)(C)NC(=O)N2CCN(C)CC2)cc1,9,-1,0,-0.2,-0.9,1.5%
CCC1Oc2ccc(C)cc2N(CC(=O)NCCC2=CCCCC2)C1=O (stereo unspecified),3,14,8,1.5,-1.6,-3.7%[38.3 µM]
COC(=O)C1CCN(CC(=O)NC(=O)Nc2ccccc2F)CC1,-9,-8,0,-0.2,5.2,-1.1%
CC(NC(=O)COC(=O)C1(C)CC1(Cl)Cl)c1ccccc1 (stereo unspecified),5,2,8,-0.1,1.5,0.9%
COc1ccc(CN2C(=O)c3cccnc3C2=O)cc1S(=O)(=O)NC1CCCCC1C (stereo unspecified),-3,8,nt,3.5,-5.1,-2.4%
CCC1CCCCN1S(=O)(=O)c1ccc(S(=O)(=O)N(Cc2ccccn2)CC2CCCO2)cc1 (stereo unspecified),0,-8,-13,-0.2,-0.3,-1.7%
CCCOc1ccc(C(=O)C(CN2CCCC2)c2ccccc2)cc1 (stereo unspecified),-3,-2,3,0.0,-4.4,-4.0%
COc1ccccc1NC(=O)CSc1nnnn1C,-13,5,-5,0.4,-0.1,-1.4%[38.3 µM]
O=C(CSc1nnc(Cc2ccccc2)o1)NCCN1C(=O)CSC1=O,2,10,0,-1.0,-0.5,2.2%
Nc1c(C(=O)N/N=C/c2ccccc2)cnn1-c1ccccc1,-3,10,nt,-0.4,-3.2,7.9%
Cc1nn(Cc2ccccc2)c2c1C(c1ccco1)C(C#N)=C(N)O2 (stereo unspecified),-5,3,0,1.3,3.6,0.9%
O=C(c1ccc(NC2=NC3CS(=O)(=O)CC3S2)cc1)N(CCO)Cc1ccccc1 (stereo unspecified),0,6,7,0.3,-12,-1.1%
Nn1c(SCC(=O)Nc2ccc3c(c2)OCO3)nnc1C(F)(F)F,-2,-8,7,1.3,-0.5,0.7%
CCOc1cc(N2CCOCC2)c(OCC)cc1NC(=O)COC(=O)c1cccc2ccccc12,-3,63,-13,3.6,-3.8,7.0%
OC(c1ccccc1)(c1ccccc1)c1ccn[nH]1,6,-3,5,0.2,-1.6,-0.1%
CC(=O)c1c(C(C)=O)c(C)n(-c2ccc(N)c(C)c2)c1C,-5,5,-1,1.7,-3.6,1.0%
CN(C)c1cccc2c(S(=O)(=O)NC(=O)[C@H]3O[C@@H](n4cnc5c(N)ncnc54)[C@H](O)[C@@H]3O)cccc12,0,16,8,0.1,11,-0.3%
COc1ccc(C(=O)NC2CCCc3ccccc32)cc1[N+](=O)[O-] (stereo unspecified),-20,0,-13,-1.1,-3.2,7.2%
COc1cc(OC)cc(C(=O)NCCCN2CCOCC2)c1,3,-1,-2,0.0,-2.1,0.1%
N#Cc1ccc(-c2nc3ccc(Cl)cn3c2Cc2ccccc2C(F)(F)F)cc1,7,13,12,2.1,-3.4,0.8%
CSc1ccc(/C=C(/NC(=O)c2ccccc2)C(=O)NCCN2CCOCC2)cc1,-3,5,7,-0.1,-6.7,-0.7%
C#CCOCCOCCOCCNc1nc(N2CCOCC2)nc(N2CCN(C(=O)[C@H](C)n3cc(CCC(=O)O)nn3)CC2)n1,4,5,4,2.9,-3.3,-0.7%
CCCN(C(=O)CSc1nnnn1-c1ccccc1OC)C1CCS(=O)(=O)C1 (stereo unspecified),6,-20,4,-0.3,-2.8,-1.1%
O=C(O)Cc1sc(NC2CCCCC2)nc1-c1ccc(Cl)cc1,12,-12,-2,0.8,-3.3,4.8%
Cc1ccc(NC(=O)CN(C)C(=O)COC(=O)C2=COCCO2)cc1,9,4,2,0.6,-1.8,0.4%
COc1ccc(S(=O)(=O)c2c(O)c3ccc(C(=O)Nc4ccccc4)cc3[nH]c2=O)cc1,?,3&-7,?,-0.2&-0.5,-2.2,-0.5%&2.1%
COc1ccc(Cl)cc1NC(=O)CCN1CCN(c2ccccc2C)CC1,1,9,7,-0.2,1.8,nt
NNC(=O)C1CCN(S(=O)(=O)c2ccc(Cl)cc2)CC1,2,-7,4,-1.0,-2.5,0.9%
CCCOc1ccc(C2C(C(=O)c3cc4ccccc4o3)=C(O)C(=O)N2c2cc(C)on2)cc1OC (stereo unspecified),-8,1,nt,-0.6,-1.3,0.3%
CN(C)/C=N/C(=S)Nc1ccc(Cl)cc1Cl,18,4,24,1.1,-5.8,0.7%
CCc1nn(-c2cc(Oc3cccc4ccccc34)nc(-c3ccccc3)n2)c(N)c1C#N,0,-7,2,0.3,-8.8,12%
CN(C)c1nc(NC(C)(C)C)nc(SCC(=O)Nc2ccccc2)n1,1,6,3,2.4,7.4,3.1%
O=C(Cn1nc(-c2ccc(Cl)cc2)c2ccccc2c1=O)Nc1cccnc1,-6,-16,-5,0.8,-7.9,2.5%
COC(=O)c1cccc(NC(=O)CSc2nnc(C)n2C)c1,0,12,-2,0.3,3.5,-0.7%
S=c1[nH]nc(-c2cc(-c3ccccc3)n[nH]2)n1/N=C/c1cccc(Cl)c1,-10,7,-15,3.3,2.7,-0.5%
CC1Cc2cc(/C(O)=C3/C(=O)C(=O)N(CCCn4ccnc4)C3c3ccc(Br)cc3)ccc2O1 (stereo unspecified),1,-1,nt,0.3,2.0,0.7%
CCOC(=O)C1=C(COC(=O)c2ccc(OC)c(S(=O)(=O)N3CCOCC3)c2)NC(=O)NC1C (stereo unspecified),-2,-9,4,-0.5,-2.3,-0.2%
Cc1[nH]c2c(C)cccc2c(=O)c1CN1CCCCCC1,-2,0,nt,3.4,-5.6,0.4%
Cc1c(Cl)cccc1N1CCn2c1nc1c2c(=O)n(CC(=O)O)c(=O)n1C,nt,0,nt,-0.6,nt,0.2%
CCOc1ccc(N2C(=O)C3C4C=CC(CC4)C3C2=O)c([N+](=O)[O-])c1 (stereo unspecified),-12,-7,0,-0.1,-0.5,1.4%
Cc1ccccc1NNC(=O)C(=O)NNc1ccccc1C,-3,24,nt,-0.5,-3.4,1.5%
COc1ccc(OC)c(C(=O)COC(=O)c2ccc(C)o2)c1,8,-5,0,0.5,-4.2,1.6%
COc1ccc(C(=O)Nc2ccc(-c3nnn(CC(=O)N4CCN(C(=O)c5ccco5)CC4)n3)cc2)cc1,-5,-5,4,0.9,-1.0,13%
CC(=O)Nc1ccc(NC(=O)c2sc3nc4c(c(-c5ccc(C)cc5)c3c2N)CCC4)cc1,8,-9,1,-0.7,-7.3,12%
O=C(NCCN1CCN(C(=O)c2cccc(Br)c2)CC1)C(=O)NCc1ccccc1,-1,13,6,-0.2,0.9,-1.6%
COC(=O)c1ccc(Nc2cc(C)nc3ncnn23)cc1,?,26,?,1.3,-0.5,-1.6%
CCCCCN(C(=O)CCC(=O)OCC(=O)N(CC#N)c1ccccc1)c1c(N)n(CCCC)c(=O)[nH]c1=O,-1,9,1,0.7,-3.1,-0.7%
Cc1ccc(Nc2nc(N)c([N+](=O)[O-])c(NCCO)n2)cc1,-24,-17,?,2.8,-7.0,0.3%
CCC(C(=O)OC)n1cnc2c(nnn2-c2cccc(Cl)c2)c1=O (stereo unspecified),-1,0,0,-0.7,1.3,-1.4%
COc1ccc2cc(CN(Cc3cccs3)Cc3nnnn3Cc3ccccc3)c(=O)[nH]c2c1,-12,-10,-9,0.9,-1.3,-1.7%
CCOc1ccc(-c2nc3n(c(=O)c2C#N)CCCS3)cc1,1,-13,3,0.0,-1.9,3.4%
O=C(Nc1cccc2cccnc12)c1ccc2sc([C@H]3C[C@H](O)[C@@H](CO)O3)nc2c1,-10,nt,-5,0.2,9.4,0.3%
# More structures
SMILES,Six1-Eya2 blk,TRPML1 blocker,CtBP-E1A blk,TRPML1 agonist,D2 agonist,PINK1 expr mod
CNC(=O)c1c(C)noc1C,2,7,0,-0.4,-1.5,0.1%
CC(C)c1ccc(Nc2cnn(C34CC5CC(CC(CC(=O)O)(C5)C3)C4)c(=O)c2Cl)cc1,6,-8,2,0.8,-2.8,nt
CCOC(=O)Nc1cccc(NC(=O)c2cc(OC)cc(OC)c2)c1,-12,?,-14,1.2,-1.7,7.6%[38.3 µM]
O=C(c1cccc(S(=O)(=O)N2CCN(c3ccccc3)CC2)c1)N1CCCCCCC1,-13,3,-3,2.3,2.8,-1.4%
O=C1CC(c2ccco2)CC(O)=C1C=NCC1NCCc2ccccc21 (stereo unspecified),-24,-8,-23,-0.5,-5.9,3.1%
Cc1ccc(-n2c(C)c(C)c3c(NCCN(C)C)ncnc32)cc1,-15,nt,-1,nt,-1.7,0.0%
N=C(N)SCc1nc2ccccn2c1Br,-12,27,-16,1.4,0.3,0.7%
Cc1ccc(CNC(=O)CSc2nc3c(sc4ccccc43)c(=O)n2CCCN2CCCC2)cc1,2,12,0,0.5,0.1,-1.7%
OC(c1ccccc1)(c1nc(-c2cccc3cccnc23)cs1)C(F)(F)F (stereo unspecified),9,nt,-18,0.4,-2.8,13%
CCN(CC)CCNC(=O)c1[nH]c2ccc(OCc3ccccc3)cc2c1C,-22,-5,3,0.1,-6.1,-2.7%
CCCNC(=O)Cn1cccc1C(=O)c1ccccc1,2,-7,-1,1.5,-2.8,1.2%

# Pulled by structure from above (six):
SMILES,Six1-Eya2 blk,TRPML1 blocker,CtBP-E1A blk,TRPML1 agonist,D2 agonist,PINK1 expr mod
CNC(=O)c1c(C)noc1C,2,7,0,-0.4,-1.5,0.1%
CCOC(=O)Nc1cccc(NC(=O)c2cc(OC)cc(OC)c2)c1,-12,?,-14,1.2,-1.7,7.6%[38.3 µM]
N=C(N)SCc1nc2ccccn2c1Br,-12,27,-16,1.4,0.3,0.7%
Cc1ccc(CNC(=O)CSc2nc3c(sc4ccccc43)c(=O)n2CCCN2CCCC2)cc1,2,12,0,0.5,0.1,-1.7%
CC(C)c1ccc(Nc2cnn(C34CC5CC(CC(CC(=O)O)(C5)C3)C4)c(=O)c2Cl)cc1,6,-8,2,0.8,-2.8,nt
O=C(c1cccc(S(=O)(=O)N2CCN(c3ccccc3)CC2)c1)N1CCCCCCC1,-13,3,-3,2.3,2.8,-1.4%
